Assay outcomes: PubChem, National Center for Advancing Translational Sciences (NCATS)
NS1 inh – inhibitors of influenza NS1 protein function | AID 2326 | 0.4% of 270,000 active | Potency, µM (doses to about 46.1 µM), without a hit: top-dose activity, positive = more growth | S. cerevisiae slowed by influenza A NS1, growth recovery by OD600; active means well fitted rising curve with a large enough effect; inconclusive means small, poorly fitted or top-dose-only effect; inactive means no such curve, though single readings can be large or run the other way; note: nearly all actives have a fitted effect of over 50% in size
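Recovery from NS1-induced slow growth read by OD600 in budding yeast switched to galactose assay medium (pH 6.0, -URA) at 1:100 dilution. Compound 23 nl per well; the matching strain lacking NS1 serves as control.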
MARV entry inh – blocks Marburg virus binding to or entry into cells; Marburg virus pseudotyped entry inhibition, cell reporter; control for the full effect not named in the record; about a third of the inactives were read at about 46 µM; Potency, µM (top dose mostly 37.8 µM), for the others: at the highest dose activity change, negative = inhibition, hits mostly inhibitors; 1.8% of 300,000 active; AID 540276; active = well fitted inhibition curve with a large enough effect; inconclusive = small, poorly fitted or top-dose-only effect, or effect the other way; inactive = flat fitted curve, though single readings scatter; tested in HEK293 cells; about a fifth of its hits are not listed in these tables; note: % is set by controls: 0 for no effect and ±100 for the full control effect; luciferase read-out
LASV entry inh – Lassa virus entry inhibition | 1.2% of 300,000 active | Lassa virus pseudotype entry inhibition, cell reporter; control for the full effect not named in the record | Potency, µM (titrated, usually from 37.9 µM), inactives show at the top dose activity change, negative = inhibition, actives largely listed as inhibitors | AID 540256; active means well fitted inhibition curve with a large enough effect; inconclusive means small, poorly fitted or top-dose-only effect, or effect the other way; inactive means flat fitted curve, though single readings scatter; tested in HEK293 cells; note: % is set by controls: 0 for no effect and ±100 for the full control effect; nearly all actives have a fitted effect of over 50% in size; luciferase read-out
Cruzain noTriton – blocks cruzain activity in detergent-free assay; AID 1476; 2.3% of 200,000 active; purified cruzain, Z-FR-AMC fluorescence, no detergent; P25779; Potency, µM, for the others: max response, negative = inhibition, usual class: inhibitors;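 note: plate controls were enzyme without inhibitor for no effect and buffer without enzyme for full effect; nearly all actives have a fitted effect of over 40% in size; top concentration of the series not given in the record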
Target sequence (P25779 123-467 limits assumed): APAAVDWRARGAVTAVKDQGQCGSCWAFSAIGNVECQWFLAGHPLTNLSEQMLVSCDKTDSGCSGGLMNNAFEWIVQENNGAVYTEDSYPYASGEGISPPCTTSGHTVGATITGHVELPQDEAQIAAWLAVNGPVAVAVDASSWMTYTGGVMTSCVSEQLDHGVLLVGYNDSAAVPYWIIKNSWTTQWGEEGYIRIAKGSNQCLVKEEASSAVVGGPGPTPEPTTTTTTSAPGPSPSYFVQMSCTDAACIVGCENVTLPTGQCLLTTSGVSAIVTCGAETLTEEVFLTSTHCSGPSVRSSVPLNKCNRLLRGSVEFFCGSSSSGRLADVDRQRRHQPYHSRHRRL
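Detergent-free condition (0.00005% Triton X-100) in acetate buffer pH 5.5 with DTT. 1.5 nM enzyme and compound were pre-mixed 15 min, then 2 uM Z-FR-AMC substrate added; reaction progress from fluorescence change between first and third reads (60 s).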
StopGo reporter – FMDV 2A StopGo reporter, luciferase signal | human cells with a luciferase reporter of 2A StopGo recoding; control for the full effect not named in the record | Potency, µM (doses to about 57.9 µM), for the others: at the highest dose signal change, negative = less light | 1.2% of 410,000 active; active = well fitted falling curve with a large enough effect; inconclusive = small, poorly fitted or top-dose-only effect; inactive = no such curve, though single readings can be large or run the other way; tested in HEK293T cells; note: % is set by controls: 0 for no effect and ±100 for the full control effect; nearly all actives have a fitted effect of over 45% in size; luciferase light after 4 h
SARS PLP yeast – blocks SARS-CoV papain-like protease in a yeast assay; 0.19% of 330,000 active; S. cerevisiae expressing SARS-CoV PLpro, growth rescue; control for the full effect not named in the record; Potency, µM (titrated, usually from 32.9 µM), without a hit: at the top dose activity, positive = growth rescue; active means well fitted rising curve with a large enough effect; inconclusive means small, poorly fitted or top-dose-only effect; inactive means no such curve, though single readings can be large or run the other way; note: 0% is about no effect; nearly all actives have a fitted effect of over 55% in size; growth read by luminescence after 48 h
RE007 growth inh – less growth of the S. pombe RE007 Vpr strain | S. pombe RE007 Vpr strain, BacTiter-Glo ATP luminescence, 24 h; control for the full effect not named in the record | Potency, µM (doses to about 92.2 µM), without a hit: top-dose activity change, negative = less growth | 0.21% of 360,000 active; active = well fitted falling curve with a large enough effect; inconclusive = small, poorly fitted or top-dose-only effect; inactive = no such curve, though single readings can be large or run the other way;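 note: % is set by controls: 0 for no effect and ±100 for the full control effect; nearly all actives have a fitted effect of over 50% in size; the assay follows cell death caused by Vpr and the record does not say whether a fall means rescue or toxicity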
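Fission yeast RE007 carrying one integrated HIV-1 vpr copy, seeded at OD 0.01 in PMG+AL medium with 23 nL pinned compound. Grown 24 h at 30 degrees; viability read by BacTiter-Glo luminescence after 5 min.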
Cruzain inh Det – inhibitors of Trypanosoma cruzi cruzain with detergent | P25779 | purified cruzain, Z-FR-AMC fluorescence, 0.01% Triton | Potency, µM, without a hit: max response, negative = inhibition, most hits filed as inhibitors | 0.43% of 200,000 active;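 note: plate controls were neutral wells for no effect and buffer without enzyme for full effect; nearly all actives have a fitted effect of over 40% in size; top concentration of the series not given in the record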
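Cruzain (1.5 nM) preincubated 15 min at RT with compound in 100 mM sodium acetate pH 5.5, 5 mM DTT, 0.01% Triton X-100. Reaction started with 2 uM Z-FR-AMC; AMC fluorescence (ex 360/em 450 nm) change over 60 s gave rate.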
* = called active by the depositor; ? = inconclusive; . = not tested or not shown; & = joins results of further samples; [ ] = another dose, or the depositor's remark. Unless noted, calls come from the whole dose curve; as a rule, active = well fitted curve in the direction sought with a large enough effect; inconclusive = small, poorly fitted or top-dose-only effect, or another doubt; inactive = no such curve, though single readings can be large; an effect the other way counts as inactive or inconclusive. Potency is the fitted concentration of half-maximal effect.

SMILES	NS1 inh	MARV entry inh	LASV entry inh	Cruzain noTriton	StopGo reporter	SARS PLP yeast	RE007 growth inh	Cruzain inh Det
CC(C)c1ccccc1OCC(=O)NCC(c1cccs1)N1CCOCC1 (configuration not stated)	-49%	?	-20%	?	32µM*	-7%	13%	-3.3%
NC(=O)CSc1nnc(-c2cccc(S(=O)(=O)N3CCCCC3)c2)o1	0%	.	.	.	11%	1%	-6%	.
CC1(C)CC(CC(=O)O)(c2ccccc2)CCO1 (configuration not stated)	-10%	25%	12%	1%	-6%	-1%	13%	4.2%
O=C(NCc1ccccc1F)C1CCN(C(=O)Nc2ccc(F)cc2)CC1	5%	-6%[46.1 µM]	.	.	-5%	-1%	-22%	.
CCNC(=O)/C(C#N)=C/c1c(N2CCN(Cc3ccc4c(c3)OCO4)CC2)nc2c(C)cccn2c1=O	-11%	?	10%&-24%	10%	7%	-8%	.	3.3%
CCO[C@@H]1OC(C(N)=O)=C[C@H](c2ccc(Br)cc2)[C@H]1CCCO	-3%	.	.	.	-20%	1%	-13%	.
O=C(NCc1cccnc1)c1ccc2c(c1)N(Cc1ccccc1)CCS2	-10%	?	-3%	.	-28%	0%	-18%	.
CC1(C)CC(=O)C=C(Nc2ccccc2F)C1	3%	38%	2%	4%	-23%	9%	-1%	5.8%
Fc1c(F)c(F)c(/C=N/NC(=S)Nc2cccnc2)c(F)c1F	8%	?	?	.	?	0%	1%	.
O=C(CSc1ccsc1[N+](=O)[O-])N1CCN(c2ccccc2)CC1	3%	4%	7%	-4%	-16%	-4%	-3%	-16%
Cc1ccc(-c2cc(C(=O)NCc3ccccc3Cl)c3ccccc3n2)cc1C	.	.	5%[46.1 µM]	-3%	17%	.	.	0.3%
O=C(CCCCCNS(=O)(=O)c1ccc(Br)cc1)NCCN1CCOCC1	-3%	1%	-26%[14.3 µM]	1%	-16%	2%	8%	1.5%
CCOc1ccccc1NC(=O)c1c(NCc2cccs2)sc2c1CCC(C)C2 (configuration not stated)	.	.	7%[46.1 µM]	-11%	18%	.	.	-4.2%
COCCNC(=O)CSc1nc2ccccc2c(=O)n1CCC(=O)N1CCN(c2ccccc2)CC1	.	?	2%	.	-26%	2%	1%	.
CC(C)Cn1c(=O)c2ccccc2n2c(CCC(=O)NCc3ccccn3)nnc12	-1%	23%[46.1 µM]	-3%[46.1 µM]	.	-1%	-6%	5%	.
CCCc1nnc(N2C(=O)c3oc4ccc(F)cc4c(=O)c3C2c2ccc(C(=O)OC)cc2)s1 (configuration not stated)	.	-5%[46.1 µM]	25%[46.1 µM]	-6%	-11%	.	.	-14%
CCC(=O)N/C(N)=N/c1nc(C)c2cc(OC)ccc2n1	3%	?	18%	-25%	33%[activator]	-1%	3%	-20%
NC(=O)c1ccc[n+](Cc2ccccc2)c1	2%	16%	16%	-5%	-6%	0%	-4%	0.0%
Clc1ccccc1COc1ccc(/C=N/n2cnnc2)cc1	-45%	-13%	-20%	-12%	-11%	-15%	-5%	-3.2%
COc1cccc(NC(=O)Cn2c(=O)oc3ccccc32)c1	1%	22%	-2%	-2%	0%	-1%	2%	-6.1%
COc1cccc(NC(=O)Cn2nc3c4ccccc4n(Cc4cccc(F)c4)cc-3c2=O)c1	.	.	-14%[46.1 µM]	1%	-19%	.	.	-2.0%
COc1ccc(/C(C)=N/NC(=O)c2ccc(N(C)C)cc2)cc1	-46%	29%	?	-7%	-2%	-17%	-14%	-0.1%
Cc1ccc(-n2nc(C)c(C(=O)NCCCN3CCN(c4ccccc4F)CC3)c2-n2cccc2)cc1	.	.	?	8%	?	.	.	-4.5%
CCC(Sc1nc2ccccc2c2nc(CCc3c(C)n[nH]c3C)nn12)C(=O)Nc1ccccc1F (configuration not stated)	.	.	-1%[46.1 µM]	?	-20%	.	.	2.7%
Nc1nc(-c2cccnc2)nn1C(=O)c1ccco1	3%	0%	.	3%	.	-1%	.	8.7%
COC(=O)c1ccc(N2C(=O)CC(N3CCN(C(=O)c4ccco4)CC3)C2=O)cc1 (configuration not stated)	-28%	21%	0%	-1%	0%	-24%	2%	2.9%
COc1cc(/C=N/NC(=O)c2cc(-c3ccccc3Cl)nc3ccccc23)cc(OC)c1O	.	-5%[46.1 µM]	?	.	1%	.	-8%	.
CN(C)Cc1cc(O)c(CN(C)C)cc1O	8%	.	.	.	-12%	0%	-10%	.
Cc1cc2nnc(SC3CCOC3=O)n2c2ccccc12 (configuration not stated)	1%	5%	-5%	-1%	16%	-5%	-1%	-1.6%
COc1ccccc1NC(=O)Cn1c(=O)n(CCc2ccccc2)c(=O)c2sc3ccccc3c21	.	5%[46.1 µM]	7%[46.1 µM]	-3%	18%	.	.	-2.4%
COc1ccc(C(=O)Nn2c(SCC(=O)NC3CCCCC3)nc3ccccc3c2=O)cc1	-7%	?	?	12%	13µM*	-4%	0%	-3.8%
O=C(CN(C(=O)CCC(=O)Nc1nccs1)c1ccccc1F)NCc1ccc(F)cc1	1%	-1%[46.1 µM]	.	.	-6%	1%	8%	.
Cn1ccc(-c2cc(C(=O)O)c3ccccc3n2)n1	.	0%	-7%[46.1 µM]	.	2%	-9%	-2%	.
CC(C)c1ccc(NC(=O)N2C[C@H]3C[C@@H](C2)c2cccc(=O)n2C3)cc1	9%	.	.	.	-9%	3%	-1%	.
COc1ccccc1N1CCN(C(=O)CCNS(=O)(=O)c2cc(Br)cnc2N)CC1	-23%	-30%[46.1 µM]	?	.	7%	-2%	-2%	.
CC1CCC(CN2CCN=C2Nc2ccccc2)CC1 (configuration not stated)	-13%	.	.	.	-17%	-2%	3%	.
O=C(O)c1ccccc1C=NNc1ccccn1	.	29%	26%[46.1 µM]	.	18%	.	-1%	.
NC(=O)C1CCN(C(=O)CC2C(=O)NCCN2Cc2cccc(Oc3ccccc3)c2)CC1 (configuration not stated)	1%	12%	16%	.	-22%	3%	3%	.
Cc1ccc(C)c(OCC(=O)Nc2ccncc2)c1	-20%	.	.	.	-20%	-7%	-3%	.
COC(=O)c1ccc2nc(NC(=O)CSCC(=O)OCC(=O)c3ccccc3)sc2c1	-25%	21%	3%	-5%	-13%	18%	-2%	-16%
Cc1ccc(C(=O)NC2(C(F)(F)F)NC(=O)N(c3ccc(Cl)cc3)C2=O)cc1 (configuration not stated)	6%	7%	13%	-1%	0%	19%	23%	-4.1%
CN1C(=O)C(=O)/C(=C(/O)c2ccccc2)C1c1ccc([N+](=O)[O-])cc1 (configuration not stated)	29%	.	.	.	-11%	8%	1%	.
Cc1ccc(-n2c([S-])c(C(=O)NC(C)c3ccccc3)[n+]3ccccc23)cc1 (configuration not stated)	.	12%[46.1 µM]	-25%[46.1 µM]	.	26%	-8%	-20%	.
CN(C)C(=O)c1ccc(N=Nc2c(O)c3ccccc3[nH]c2=O)cc1	.	?	?	.	?	.	18µM*	.
CCCCn1c(N(CCOC(C)=O)C(C)=O)nc2ccccc21	-2%	4%	?	3%	-22%	-6%	-6%	-11%
CC(C)(C)c1csc(NC(=O)C2COc3ccccc3O2)n1 (configuration not stated)	-2%	?	?	.	13%	-9%	-13%	.
COC(c1ccccc1)c1c(-c2ccccc2)nn(C)c1Cl (configuration not stated)	-19%	-1%	-3%	-1%	-6%	-3%	16%	-4.2%
Cc1cc(N2CCC(C)CC2)c(F)cc1[N+](=O)[O-]	1%	0%	0%	2%	1%	-1%	-23%	-1.8%
CCOc1ccc(C(=O)Nc2cc(NC(=O)c3ccco3)ccc2OC)cc1Br	.	.	?	1%	?	.	.	-0.4%
Nc1nc(SCC(=O)c2ccc(Br)s2)n[nH]1	.	?	20%[46.1 µM]	.	17%	0%	4%	.

Next section.
SMILES	NS1 inh	MARV entry inh	LASV entry inh	Cruzain noTriton	StopGo reporter	SARS PLP yeast	RE007 growth inh	Cruzain inh Det
CCOC(=O)c1cc(-c2ccc(F)cc2)n(CCC(=O)Nc2ccccc2OC)c1C	.	.	-21%[46.1 µM]	21%	-18%	.	.	-8.0%
COc1ccc(C(CNC(=O)c2cccc(S(=O)(=O)NCc3ccccc3)c2)N2CCOCC2)cc1 (configuration not stated)	.	1%	-6%	.	13%	0%	-1%	.
CC(C)SCc1nc2ccccc2[nH]1	-4%	11%[46.1 µM]	-9%	1%	0%	3%	13%	-3.1%
CN(C)C(=O)Nc1ccc(F)cc1F	?	13%	-11%	8%	.	.	-8%	6.3%
CC(C(=O)NCc1ccc(Cl)cc1)n1ccc2cc(S(=O)(=O)N3CCCCCC3)ccc21 (configuration not stated)	.	.	?	19%	11%	.	.	4.1%
CC(=O)Nc1ccc2c(c1)nc(CN1CCCC1)n2C	8%	-23%	20%[14.3 µM]	4%	-14%	0%	-11%	-5.7%
COc1ccc(C(CC(=O)O)NS(=O)(=O)c2ccc3c(c2)NC(=O)CO3)cc1 (configuration not stated)	6%	5%[46.1 µM]	?	.	15%	2%	-17%	.
CC(C)Sc1ncc(Cl)c(C(=O)Nc2ccc(S(=O)(=O)Nc3ncccn3)cc2)n1	.	-5%[46.1 µM]	18%[46.1 µM]	6%	-7%	.	.	0.2%
COc1ccc(N2CCN(c3nc4ccc(C)cn4c(=O)c3C=O)CC2)cc1	4%	.	.	.	-16%	0%	34%	.
CCOC(=O)C1(CCc2ccccc2)CCN(C(=O)C2CCCO2)CC1 (configuration not stated)	0%	22%[46.1 µM]	-13%	.	26%	-3%	14%	.
CC12CCC(=O)N1C(C(=O)Nc1ccccc1N1CCCC1)CS2 (configuration not stated)	.	?	1%	.	11%	.	-4%	.
Cc1cc(C)n2c(SCc3ccc(Cl)cc3Cl)nnc2n1	-20%	-11%	-6%	?	-2%	-3%	3%	1.2%
COc1ccc2[nH]c(=O)c(CN(Cc3cccnc3)C(=O)Nc3ccccc3)cc2c1	-112%	-29%	-16%	-2%	-20%	-31%	-2%	-3.0%
COc1cc(NC(=O)Cn2c(=O)n(CC3CCC(C(=O)NCCc4ccccc4)CC3)c(=O)c3ccccc32)cc(OC)c1 (configuration not stated)	.	?	16%[46.1 µM]	-16%	4%	.	.	-2.8%
CSc1cccc(NC(=O)CSc2ccc(C)cc2)c1	-1%	25%[46.1 µM]	12%	5%	30%	-8%	0%	-8.2%
Cn1c(=O)n(C)c2cc(S(=O)(=O)Nc3cc(Cl)ccc3O)ccc21	-31%	-9%[46.1 µM]	-12%	.	?	-3%	-10%	.

Hits appear at their usual frequency. Share with any hit: about 4.7%.
